gsp antag – qHTS for Antagonists of gsp, the Etiologic Mutation Responsible for Fibrous Dysplasia/McCune-Albright Syndrome: qHTS | gsp-mutant cells, cAMP HTRF, 30 min; control for the full effect not named in the record | Potency, µM (highest dose often 76.9 µM), for inactives: at the top dose activity change, negative = inhibition, hits mostly inhibitors | 340,000 compounds, 0.4% hits | AID 624288, 2012; active = falling curve of any shape with a large fitted effect; inconclusive = falling curve, mostly with a smaller effect; inactive = flat or rising curve; cell line not stated here;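 further: intracellular cAMP measured with PDE inhibitor Ro 20-1724 present during compound exposure; potency means the concentration at half of the fitted maximal effect; on the % scale 0 is the no-effect control and ±100 the full control effect; nearly all actives have a fitted effect of over 65% in size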
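G418-selected cells were plated in DMEM/10% FBS for 16-24 h at 37C, then treated with compounds plus the PDE inhibitor […] (300 uM solution added) for 30 min at 37C. Intracellular cAMP was measured by HTRF after 30 min lysis at room temperature.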
gsp agonist – qHTS for Agonist of gsp, the Etiologic Mutation Responsible for Fibrous Dysplasia/McCune-Albright Syndrome: qHTS | AID 624287, 2012 | 340,000 compounds, 0.13% hits | gsp mutant cells, cAMP HTRF, 30 min; control for the full effect not named in the record | Potency, µM (top dose mostly 76.9 µM), inactives show at the highest dose activation (cAMP increase), actives largely listed as activators; active = well fitted activation curve with a large enough effect; inconclusive = small, poorly fitted or top-dose-only effect, or another doubt; inactive = no such curve, though single readings can be large or run the other way; cell line not stated here;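 further: phosphodiesterase inhibitor Ro 20-1724 added with compounds to block cAMP breakdown; potency means the concentration at half of the fitted maximal effect; nearly all actives have a fitted effect of over 60% in size; about a fifth of the inactives were tested at one dose only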
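Cells in DMEM/10% FBS with G418 were pretreated with compounds in DMSO plus […] (300 uM stock) for 30 min at 37C. cAMP was measured by HTRF (cAMP-d2 plus anti-cAMP antibody-K) after 30 min at room temperature.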
Sfp inh – qHTS Assay for Inhibitors of Bacillus subtilis Sfp phosphopantetheinyl transferase (PPTase); 4'-phosphopantetheinyl transferase ffp (Bacillus subtilis), Q9F4F7; Biochemical Sfp PPTase activity, qHTS; Potency, µM, for inactives: max response, negative = inhibition, hits mostly inhibitors; 310,000 compounds, 3.5% hits; active means well fitted inhibition curve with a large enough effect; inconclusive means small, poorly fitted or top-dose-only effect, or another doubt; inactive means no such curve, though single readings can be large or run the other way;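 further: the enzyme is Sfp with the accession as filed and its product quenches rhodamine fluorescence; potency means the concentration at half of the fitted maximal effect; 0% = enzyme reaction without inhibitor and -100% = no enzyme wells; top concentration of the series not given in the record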
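Compounds were incubated with enzyme (final 15 nM) for 15 min at room temperature before substrate addition started the reaction. Fluorescence at 525 nm excitation, 598 nm emission was recorded immediately and after 30 minutes.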
ClpP mod – qHTS Assay for Activators of ClpP; ATP-dependent Clp protease proteolytic subunit (Bacillus subtilis (strain 168)), P80244; purified B. subtilis ClpP, FRET peptide cleavage, 20 min; Potency, µM (series often up to 57.5 µM), without a hit: top-dose activity change, negative = active; 340,000 compounds, 1.9% hits; AID 651965, 2013; active = well fitted falling curve with a large enough effect; inconclusive = small, poorly fitted or top-dose-only effect; inactive = no such curve, though single readings can be large or run the other way; further: potency means the concentration at half of the fitted maximal effect; the source files actives as falling curves though it sought activators and does not explain the sign; nearly all actives have a fitted effect of over 65% in size; many hits overshoot -100%
Target sequence (P80244 whole entry, looked up): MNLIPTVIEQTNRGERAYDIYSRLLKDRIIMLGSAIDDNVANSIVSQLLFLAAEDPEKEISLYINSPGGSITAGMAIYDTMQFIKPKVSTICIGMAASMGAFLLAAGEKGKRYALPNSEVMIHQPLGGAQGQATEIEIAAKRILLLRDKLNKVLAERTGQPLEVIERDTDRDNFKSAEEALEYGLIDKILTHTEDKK
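Buffer: 100 mM Tris/HCl pH8, 100 mM KCl, 0.05% low protease BSA, 2.5% glycerol, 0.01% Tween-20. ClpP 10 microg/mL final; 20 min RT; delta FRET normalized to ADEP and DMSO controls.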
Menin MLL FP FL – qHTS Assay for Inhibitors Targeting the Menin-MLL Interaction in MLL Related Leukemias: Competition With Fluorescein Labeled MLL-derived Peptide. FP activity change, % at 61.4 µM. Fluorescence polarization, fluorescein-MLL peptide displacement from menin. 290,000 tested, under 10 active; inconclusive = falling polarisation curve, or a change in total fluorescence; inactive = total fluorescence flat and polarisation flat or rising; no compound was filed as active; the % refers to the polarisation; negative = inhibition;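 further: % of control where 0% means no effect; inhibitors lower the polarisation; unlabelled MLL peptide was the positive control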
TRPML1 inh – qHTS for Inhibitors of the Human Mucolipin Transient Receptor Potential 1 (TRPML1). AID 624415, 2012. 390,000 compounds, 0.02% hits. TRPML1-inducible cells, Ca2+ dye fluorescence, FDSS; stronger effect = lower value; inhibition of EC80 agonist-evoked calcium signal. activity change, negative = inhibition, % (concentration not given with the values); in the data active means activity change below about -50%; inconclusive means about -30% to -50%; inactive means above about -30%;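 further: stimulus is agonist 54-4 at its EC80 concentration; on the % scale 0 is the no-effect control and ±100 the full control effect; the text of the record puts the active cut at -80%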
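TRPML1-DL cells, Tet-induced overnight (~16 h, 37 °C) at 1,500 cells/well, were loaded with Ca8 no-wash dye plus quencher for 45-90 min at room temperature. Compounds were pinned during FDSS kinetic reading; agonist 54-4 at EC80 (4 uM final) then added.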
TRPV1 potentiator – HTS Assay for Compounds that Act as Potentiators of the Vanilloid Receptor 1; Transient receptor potential cation channel subfamily V member 1 (Homo sapiens), Q8NER1; TRPV1-expressing cells, Fluo-8 calcium influx, capsaicin EC20 potentiation; host cell line not named in the record; control for the full effect not named in the record; potentiation, % at 8.33 µM; 320,000 compounds, 0.02% hits; AID 540277, 2011; active means potentiation above 80%; inconclusive means 30% to 80%; inactive means below 30%; further: 0% is about no effect
Target sequence (Q8NER1 whole entry, looked up): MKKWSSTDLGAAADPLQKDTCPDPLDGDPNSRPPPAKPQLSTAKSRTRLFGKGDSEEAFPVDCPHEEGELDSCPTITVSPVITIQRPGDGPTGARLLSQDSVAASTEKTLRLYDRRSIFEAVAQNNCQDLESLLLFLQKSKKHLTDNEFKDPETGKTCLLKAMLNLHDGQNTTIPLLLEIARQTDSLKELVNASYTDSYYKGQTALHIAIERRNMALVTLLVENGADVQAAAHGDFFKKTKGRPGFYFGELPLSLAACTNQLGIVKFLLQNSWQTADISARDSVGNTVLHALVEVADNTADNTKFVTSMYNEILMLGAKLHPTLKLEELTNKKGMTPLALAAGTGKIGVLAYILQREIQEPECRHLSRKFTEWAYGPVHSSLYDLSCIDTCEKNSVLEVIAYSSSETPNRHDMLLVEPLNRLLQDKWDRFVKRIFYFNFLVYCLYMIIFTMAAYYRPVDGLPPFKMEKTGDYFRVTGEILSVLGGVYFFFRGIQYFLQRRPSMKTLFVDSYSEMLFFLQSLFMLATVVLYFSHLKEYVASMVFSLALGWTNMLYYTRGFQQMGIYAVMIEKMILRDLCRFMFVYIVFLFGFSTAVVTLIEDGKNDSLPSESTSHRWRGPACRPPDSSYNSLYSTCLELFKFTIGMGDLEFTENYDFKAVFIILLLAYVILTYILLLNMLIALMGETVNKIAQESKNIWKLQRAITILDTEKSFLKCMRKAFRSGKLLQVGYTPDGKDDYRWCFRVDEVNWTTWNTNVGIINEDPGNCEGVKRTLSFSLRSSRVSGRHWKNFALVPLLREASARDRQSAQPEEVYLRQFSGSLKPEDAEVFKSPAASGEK
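TRPV1-expressing cells were cultured overnight at 35.5C and loaded with Fluo-8 calcium dye for 40 to 90 min at room temperature. After a 10 s baseline, compound was added and calcium influx was read kinetically for 3 min (ex 480/em 520 nm).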
The depositor's hits bear a star; ? = inconclusive; / = no result given; & = joins results of further samples; [ ] = another dose, or the depositor's remark. Compounds as they come. Share with any hit: about 4.9%.

SMILES	gsp antag	gsp agonist	Sfp inh	ClpP mod	Menin MLL FP FL	TRPML1 inh	TRPV1 potentiator
CC(C)OP(=O)(OC(C)C)C1(NS(=O)(=O)c2ccc(Cl)cc2)C=C(Cl)C(=O)C(Cl)=C1	3%	-26%	89µM*	1.2%	-0.3	-14	2
O=C1CC/C=C\C[C@@H](CC(=O)N(CCO)Cc2ccccc2)C(=O)NCCO1	9%	6%	/	0.5%	/	6	/
Cc1ccc(NC(=O)Cn2cc(S(=O)(=O)c3ccc(F)cc3)c(=O)c3cc(F)ccc32)cc1	6%	-46%[inhibitor]	-36%	-22%	5.0	-22	-12
CCc1ccc2nc(N3CCN(C)CC3)c(C#N)cc2c1	17%	11%	4%	-14%	2.7	6	-6
Cc1cc(C(=O)N/N=C/c2cccc(Cl)c2Cl)no1	4%	-2%	-1%	-1.1%	3.5	-2	-2
O=C(C/C=N\OCc1ccc([N+](=O)[O-])cc1)Nc1ccc(Br)cc1	-3%	-4%	19%	/	-0.2	-15	-19
O=C(Cn1cnc2ccccc21)NC(c1ccccc1)c1ccccc1	1%	-9%	3%	-5.2%	-3.5	18	-9
CC(=O)N1N=C(c2ccc(Cl)cc2)OC1c1ccc(C(C)C)cc1 (stereo not drawn)	4%	8%	-28%	-19%	2.7	6	-23
CC(C)(C)OC(=O)N1CCC(Cc2cc(-c3cccc(Br)c3)no2)(C(=O)O)CC1	?	/	-4%	2.5%	-0.6	-3	0
COc1ccccc1CNC(=O)CCC(=O)Nc1nnc(C(C)C)s1	0%	?	13%	-3.8%	2.6	-25	-6
CSc1ncnc2c1ncn2CCCNCc1ccc(C)o1	/	-6%	/	0.1%	/	-16	/
Cc1ccc(CNC(=O)C(c2ccccc2)c2ccccc2)cc1	2%	9%[15.4 µM]	15%	/	-1.7	22	-1
CCOC(=O)N1CCC(NC(=O)c2ccc3c(Cl)c4c(nc3c2)CCCC4)CC1	-1%	38%	25µM*	-3.2%	1.4	-1	7
Cc1ccc(-n2nnnc2SCC(=O)c2c(N)n(C3CC3)c(=O)[nH]c2=O)cc1C	1%	12%	/	-1.9%	/	-19	10
COc1cc(OC)c(OC)cc1CCC(C)NC(=O)Cc1ccccc1 (stereo not drawn)	5%	?	5%	-3.0%	-11	16	-3
COc1cc(C)nc2nc(SCc3ccccc3)nn12	-5%	16%[15.4 µM]	-2%	-2.5%	1.1	22	0
COc1ccc(NCC(=O)N/N=C/C(C)c2ccccc2)cc1 (stereo not drawn)	-13%	-4%[15.4 µM]	14%	/	0.3	-8	14
CC(C)Sc1nc2ccccc2c(=O)[nH]1	4%	2%	25%	-10%	0.2	12	2
CC(C)OC(=O)CSc1n[nH]c(-c2cccnc2)n1	7%	10%	8%	0.7%	-3.8	-12	-10
CC(C)(C)c1ccc(C(CC(=O)O)NC(=O)CCCc2ccccc2)cc1 (stereo not drawn)	-6%	24%	7%	/	4.1	6	0

Individual results from the list:
For gsp antag, CCc1ccc2nc(N3CCN(C)CC3)c(C#N)cc2c1 has 17%
For TRPV1 potentiator, Cc1ccc(-n2nnnc2SCC(=O)c2c(N)n(C3CC3)c(=O)[nH]c2=O)cc1C has 10

The list continues:
SMILES	gsp antag	gsp agonist	Sfp inh	ClpP mod	Menin MLL FP FL	TRPML1 inh	TRPV1 potentiator
Cc1cc(NC(=O)c2cc3nc(C4CC4)cc(C(F)(F)F)n3n2)no1	-1%	-3%	16%	-16%	2.3	9	2
COc1ccccc1CN1CCNC(=O)C1CC(=O)NC1Cc2ccccc2C1 (stereo not drawn)	7%	1%[15.4 µM]	-2%	/	-0.1	16	12
O=c1cc(-c2cc3ccccc3o2)c2cc(O)ccc2o1	-14%	3%	5%	2.8%	-3.0	0	-10
Cc1cccc(CSc2nnc(NC(=O)c3ccco3)s2)c1	-2%	-47%[inhibitor]	22%	-2.8%	2.7	-13	5
C=CCNC(=O)c1ccccc1NC(=O)c1ccccc1C	-8%	?	11%	-2.1%	2.0	49	-2
N#CC(=C(O)COC(=O)CCC1CCCCC1)c1nc2ccccc2[nH]1	-18%	-20%	/	-3.1%	/	4	/
O=C(Cn1cc(C(F)(F)F)ccc1=O)NC(c1ccccc1)c1ccccc1	-4%	-18%	7%	-11%	3.7	6	18
Cc1ccc(S(=O)(=O)CC(=O)Nc2nc3ccc(S(N)(=O)=O)cc3s2)cc1	-8%	-2%	18%	-3.8%	-1.0	17	6
Cc1cccc(NC(=O)CN2C(=O)N/C(=C/c3ccc(-c4cccc(C(=O)O)c4C)o3)C2=O)c1	5%	15%	32µM*	/	12	-5	2
COc1cc(OC)cc(C(=O)Nc2ccc(N3CCOCC3)cc2N2CCOCC2)c1	-10%	3%	/	1.2%	/	-2	-6
O=C1CCC(C(=O)Nc2ccc(OC(F)F)cc2)N1 (stereo not drawn)	8%	-6%	14%	-0.5%	2.2	-7	6
Cc1cc(CN2CCN(CCC#N)CC2)c(O)c(C2(C)CCCCC2)c1	17%	-18%	13%	-2.0%	3.3	29	-11
Cc1nc(NC(=O)CSc2nc3cccnc3n2C2CCCCC2)sc1C	29%	6%	3%	-4.4%	0.1	-7	5
Cc1ccc(NC(=O)c2cccs2)cc1NC(=O)c1cccnc1	6%	19%	-18%	1.3%	-1.7	-13	3
CCn1c(C(=O)N2CCc3ccccc3C2)cc2sccc21	-13%	-2%	-9%	-4.8%	1.3	23	-20
Cc1ccc2nnn(Cc3cccc(C(C)(C)C)c3O)c2c1	?	-24%	/	0.0%	/	-6	-5
COc1ccc(CNC(=O)C2CCN(S(=O)(=O)N3CCC(C)CC3)CC2)c(OC)c1	/	-27%	/	-0.1%&-4.4%	/	54&1	/
Cc1csc(NC(=O)CCCSc2nc3ccccc3s2)n1	?	-21%	-7%	-0.8%	7.2	8	-13
Cc1cccc(NC(=O)/C(C#N)=C\c2cc(C)n(-c3ccc(C(=O)O)cc3)c2C)c1	25µM*	5%	7%	1.5%	-0.7	0	2
COc1ccccc1N1CCN(S(=O)(=O)CCNC(=O)C2CC2)CC1	3%	5%[15.4 µM]	/	/	/	17	-6
Cc1ccc(N2C(=O)NC(C(F)(F)F)(C(F)(F)F)C3=C2CC(C)(C)CC3=O)cc1	-2%	34%	-2%	-7.2%	2.8	15	1
Cc1nc(Nc2ccc3c(c2)OCO3)c2oc3ccccc3c2n1	0%	?	-25%	-3.7%	-0.4	24	0
CCNC(=S)N(Cc1c(C)noc1C)c1ccccc1	8%	?	-9%	-2.2%	2.9	-18	25
O=C1CCC(C(=O)OC(C(=O)c2c[nH]c3ccccc23)c2ccccc2)=NN1 (stereo not drawn)	-9%	5%	5%	-0.9%	7.4	-16	2
CC(=O)NC1CC2CCCC(C1)N2C(=O)Nc1ccc(Cl)c(C(F)(F)F)c1 (stereo not drawn)	10%	-13%	8%	0.7%	1.7	41	-12
COCCCNC(=O)c1ccc(CN2CCc3ccccc3C2)cc1	6%	1%	23%	0.1%	-1.6	-13	-1
CCN(C(=O)c1coc(=O)c(Br)c1)c1ccc2c(c1)OCO2	-11%	2%	45µM*	44%	?	12	3
COc1ccc(-n2ncc(S(=O)(=O)c3ccccc3)c2-c2ccc(Cl)cc2)cc1	-16%	-32%	13%	?	-0.2	-6	/
Cc1cccc(-n2c(SCc3cc(=O)n4ccsc4n3)nc3ccccc3c2=O)c1	15%[15.4 µM]	13%	11%	-0.9%	1.5	-1	0
Cn1cc(CN2CCCCC2c2ccccn2)c(-c2ccc3c(c2)OCCO3)n1 (stereo not drawn)	2%	14%	12%	/	-5.3	-1	5
Cc1ccnc(SCc2cc(=O)c(OC(=O)c3ccc(S(=O)(=O)N(C)C)cc3)co2)n1	-6%	0%	4%	-20%	1.9	-8	6
CCOc1ccc(C(=O)NC(=S)Nc2ccccc2N2CCCCC2)cc1[N+](=O)[O-]	6%	-8%	17%	-5.3%	2.2	3	8
CC(=O)N1CCn2c3c(c4cc(C)ccc42)CCCC31 (stereo not drawn)	0%	-17%	-6%	?	-0.5	-2	-4
Cc1ccc(C(C)C)cc1NC(=O)Nc1ccc([N+](=O)[O-])cc1	?	?	21%	1.1%	1.3	15	-13
Oc1ccc(N2CCN(Cc3c(-c4ccccc4)nc4ccccn34)CC2)cc1	-19%	-9%[15.4 µM]	25µM*	/	4.0	-9	26
CSc1ccc(NC(=O)NCc2cccnc2)cc1	-1%	-14%[15.4 µM]	6%	-0.9%	7.1	-7	7
CC(C)OCC(O)Cn1c(N2CCCC2)nc2c1c(=O)[nH]c(=O)n2C (stereo not drawn)	-8%	-32%[inhibitor]	16%	-0.1%	2.4	-5	10
COC(=O)CCc1c(C)c(C(=O)c2cc(F)c(F)c(F)c2F)c2ccccn12	-16%	?	4%	0.7%	-0.9	-25	1
CC(=O)CC1(O)C(=O)N(Cc2ccccc2)c2ccccc21 (stereo not drawn)	-2%	-38%[inhibitor]	10%	0.2%	-0.9	-14	-51
O=C1CCC/C1=C/Nc1cccc(F)c1	3%	2%[15.4 µM]	-8%	-22%	3.9	23	-17
O=C(CCCN1C(=O)/C(=C/c2ccc3c(c2)OCO3)SC1=S)Nc1cccc(C(=O)O)c1	-10%	-13%	13%	-0.3%	/	-26	6
O=C(Nc1ccccn1)c1ccc(CN(c2ccccc2)S(=O)(=O)c2ccccc2)cc1	-1%	-25%	9%	/	3.6	12	-2

High-throughput results: PubChem BioAssay, National Center for Advancing Translational Sciences (NCATS)
